RecA intein inh: Mtb RecA intein splicing inhibitors, primary screen, biochemical, fluorescence, HTS | inhibition, %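 (about 9 µM by stock and volumes)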 | AID 2221, 2009 | actives 0.75% (n = 290,000) | Protein RecA (Mycobacterium tuberculosis (strain ATCC 25618 / H37Rv)), P9WHJ3 | cell-free RecA intein splicing; in the data active means inhibition above about 30%;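 further: 0% = vehicle wells and 100% = reference inhibitor control wells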
Target sequence (P9WHJ3 whole entry, looked up): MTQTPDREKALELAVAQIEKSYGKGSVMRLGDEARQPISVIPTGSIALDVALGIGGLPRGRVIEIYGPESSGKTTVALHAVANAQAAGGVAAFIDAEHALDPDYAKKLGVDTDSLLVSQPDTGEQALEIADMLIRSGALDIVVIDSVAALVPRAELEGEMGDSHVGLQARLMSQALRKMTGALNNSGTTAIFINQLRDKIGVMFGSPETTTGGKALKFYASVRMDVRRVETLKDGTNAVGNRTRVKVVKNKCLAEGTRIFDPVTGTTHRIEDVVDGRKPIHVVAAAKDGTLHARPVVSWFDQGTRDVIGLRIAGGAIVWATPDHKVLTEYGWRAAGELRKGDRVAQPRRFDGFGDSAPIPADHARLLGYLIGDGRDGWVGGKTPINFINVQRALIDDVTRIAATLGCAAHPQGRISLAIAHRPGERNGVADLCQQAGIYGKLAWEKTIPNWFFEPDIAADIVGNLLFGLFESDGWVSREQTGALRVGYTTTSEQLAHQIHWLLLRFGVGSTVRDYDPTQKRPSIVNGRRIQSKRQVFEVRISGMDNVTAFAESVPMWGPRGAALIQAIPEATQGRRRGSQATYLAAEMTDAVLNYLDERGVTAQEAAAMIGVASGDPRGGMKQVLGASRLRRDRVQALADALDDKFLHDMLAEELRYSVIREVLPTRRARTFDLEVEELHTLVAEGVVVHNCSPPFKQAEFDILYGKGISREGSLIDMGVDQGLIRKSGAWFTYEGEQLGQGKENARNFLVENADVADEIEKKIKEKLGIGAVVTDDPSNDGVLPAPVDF
Mtb betalactam: beta-lactam sensitization of Mtb H37Rv, H37Rv; M. tuberculosis H37Rv growth with meropenem, percent inhibition; hits of this screen are not shown here; inhibition, % at 25 µM; actives 0.27% (n = 330,000);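 active means about 74% or more and at least 40 points above the plate without the antibiotic, then above 30% in a dose series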;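 further: growth measured after seven days incubation then overnight dye step; 0% = bacteria only wells and 100% = bacteria with antibiotic; twin plates without the antibiotic show which effects depend on it; some results filed as inactive read as strong as hits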
YopH PTP inh: YopH tyrosine phosphatase inhibitors, primary screen, biochemical, fluorescence Ex485/Em525 | actives 0.16% (n = 140,000) | YopH tyrosine phosphatase [Yersinia enterocolitica] | AID 898, 2007 | inhibition, %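 (about 10 µM by stock and volumes)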;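 active means inhibition of 50% or more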;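 further: controls were vehicle for no effect and minimum signal wells for full effect; inactives centre near -20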
Mtb H37Rv: M. tuberculosis H37Rv growth inhibitors, H37Rv strain (AID 1626); M. tuberculosis H37Rv growth inhibition; higher % means a stronger effect; actives 0.95% (n = 220,000); inhibition, % at 10 µM; hits with a dose series show IC50 in µM;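 active means confirmed in a dose series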;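 further: bacteria incubated seven days before Alamar blue readout; 0% = bacteria only wells and 100% = bacteria with antibiotic wells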
Arbovirus anti: antivirals against arbovirus infection, primary screen, cell-based, full library, 10K replicate subset. actives 0.37% (n = 200,000). arbovirus infection cell-based antiviral screen. inhibition, % at 10 µM;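 active means inhibition from about 30%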;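 further: bluetongue infection of BSR cells; cell survival read as ATP light after 72 h; 0% = infected wells without compound and 100% = uninfected wells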
Arbovirus anti repeat: also measured in Arbovirus anti; calls as there; inhibition, %; measured here: 10K subset replicate screen; many hits read low in the repeat;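 first of two repeat runs on a subset; 0% = infected and 100% = uninfected wells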
* marks the source's active call; other numbers are inactive results; x = no result given. A portion of the library. The share of hits here may be higher or lower than overall.

SMILES	RecA intein inh	Mtb betalactam	YopH PTP inh	Mtb H37Rv	Arbovirus anti	others
Cc1ccc(-c2nc3ccccc3o2)cc1NC(=O)c1ccc2c(c1)OCO2	0.0	-3	-38	-2%	-11
COc1ccccc1NC(=O)CN1CCN(c2ccc(Cl)cc2)CC1	4.7	-5	8	7%	12
N#Cc1ccc2c(c1)nc1ccccn12	1.3	5	x	2%	-1
CCNc1nc(NC(C)C)nc(N(n2cnnc2)S(=O)(=O)c2ccc(C)cc2)n1	6.0	-1	-22	-2%	-5
Cc1cccc(NC(=O)CSc2cn[nH]n2)c1	-0.4	4	x	x	x
CN1C(=O)C(C)(C)c2cc(S(=O)(=O)N3CCCC3C(=O)NCc3ccc(F)cc3)ccc21 (centres undefined)	-1.5	5	x	x	x
COc1ccc(COCC(O)CN2CCCCC2)cc1OC (centres undefined)	2.2	5	x	x	x
Cc1ccc2nc3c(c(Nc4ccccc4)c2c1)CCC3	6.8	49	x	10%	x
Cn1c(=O)c2c(ncn2CC(=O)N2CCN(c3ccccc3F)CC2)n(C)c1=O	1.4	8	-40	-7%	1
COc1ccc(C(=O)c2c(C(F)(F)F)oc3c2C(=O)c2ccccc2C3=O)cc1OC	67*	99	17	7%	-33
CCOc1ccc2nc(SCC(=O)Nc3cc4c(cc3C(C)=O)OCO4)[nH]c2c1	-6.0	98	-39	-14%	4
CCOC(=O)c1ccc(N/C(=N/S(=O)(=O)c2ccccc2)c2ccccc2)cc1	5.7	-5	1	8%	-1
O=C(OCC(=O)N1CCCc2ccccc21)c1ccc(C(F)(F)F)cc1	0.3	2	x	x	x
O=C(CCC1CCCC1)NCc1ccccn1	-1.1	-3	-11	0%	1
CCOC(=O)C(C)/C(C)=N/NC(=O)c1cc2ccccc2cc1O (centres undefined)	-21	1	-47	17%	-32
Cc1ccc(NC(=O)c2ccc(C)c(S(=O)(=O)N3CCCCC3)c2)nc1	-5.2	-9	x	x	x
O=C(NCCCO)c1ccc(CSc2nc3ccccc3c(=O)[nH]2)cc1	-2.6	-7	x	3%	x
COc1ccc(CN2CCN(Cc3ccc(OC)c(OC)c3OC)CC2)cc1	0.4	1	x	x	x
CCOC(=O)c1cnc(-n2nc(C)cc2C)nc1Nc1ccccc1OC	x	x	-27	25%	5
Cc1c(Br)c(-c2n[nH]c(=S)n2Cc2ccco2)nn1C	-3.3	1	-26	0%	5
Cc1ccccc1NC(=O)CCSc1nnnn1-c1ccccc1	0.1	0	0	2%	-7
Cc1nn(C)cc1CNC(=O)Nc1ccc(Cl)c(Cl)c1	1.0	11	8	-13%	8
COc1cc(/C=C2/C(=O)NN(c3ccc(F)cc3)C2=O)cc([N+](=O)[O-])c1O	-4.8	79	x	65%	x
Nc1ccc(N2CCCCC2)cc1N1CCCCC1	13	91	-2	x	-15
O=c1cc(NCc2ccccc2)nc2ccccn12	-0.9	-3	x	4%	-6
COC(=O)c1ccc(-c2ccc([C@H]3[C@H]4C=CC[C@@H](C)[C@@H]4C(=O)N3Cc3ccccc3)c(F)c2)cc1	1.3	98	x	63%	x
CCC1(CC)Cc2ccccc2C2=C(C(=O)N3CCCCC3)C(=O)C(=O)N21	0.8	11	x	9%	2
COC(=O)c1cn(Cc2cc(OC)ccc2OC)cc(F)c1=O	-3.1	0	x	x	x
COc1ccc(/C=C(\NC(=O)c2ccco2)C(=O)NCCc2nc3ccccc3[nH]2)cc1	1.0	-5	x	-12%	x
O=C(O)c1ccccc1OCCOc1ccccc1	0.5	1	-131	4%	-1
Cc1cc(C(=O)Nc2ccc3c(c2)OCCO3)c(C)o1	0.9	-7	-30	-6%	-3
CCC(C)[C@H](NC(=O)[C@@H]1Cc2ccccc2CN1C(=O)OC(C)(C)C)C(=O)NCC1CCC(C(=O)O)CC1 (some centres undefined)	-0.3	17	x	2%	x
CC(=O)Nc1ccc(N2C(=O)CSC2c2ccc([N+](=O)[O-])cc2)cc1 (centres undefined)	0.2	-3	x	x	x
COc1ccc(NC(=O)Nc2ccccc2SC)cc1	-1.2	-1	x	9%	-4
CCOC(=O)C(NC(=O)c1ccccc1Cl)(Nc1sc2c(c1C(N)=O)CCC2)C(F)(F)F (centres undefined)	1.9	x	-22	-1%	8
Cc1onc(-c2c(Cl)cccc2Cl)c1C(=O)N=C(N)N1CCCC1	1.3	-4	x	-10%	x
Brc1ccccc1Cn1c(-c2cncs2)nc2ccccc21	-1.5	0	-48	7%	11	Arbovirus anti repeat=-5
O=C(OCC(=O)N1CCc2ccccc2C1)c1ccc(N2CCOCC2)c([N+](=O)[O-])c1	-0.1	95	-6	51%	9
COc1ccc(-n2c(COc3cccc(C)c3)n[nH]c2=S)cc1	0.1	-7	x	x	x
COc1ccc(CNC(=O)CN(C)S(=O)(=O)c2ccc3c(c2)n(C)c(=O)c(=O)n3C)cc1	-0.1	-5	x	x	x
C/C=C/c1ccc(OCCOCCOc2cccc3cccnc23)c(OC)c1	2.9	4	-6	10%	6
Cc1nnc(SCC(=O)NCc2ccco2)n1Cc1ccccc1	0.4	-10	-3	1%	0
Cc1cccc(CN2C(=O)NC(c3ccccc3)(c3ccccc3)C2=O)c1	16	-4	x	x	x
S=C(NCCc1ccccc1)N1CCc2ccccc2C1	2.3	5	x	10%	3
CCOC(=O)c1c(C)nc2c(c1-c1ccc(Cl)cc1)C(=O)CC(C)(C)C2	5.1	-1	-12	0%	-8
CC(C)CN(C(=O)COC(=O)c1ccc2c(c1)OCCO2)c1c(N)n(Cc2ccccc2)c(=O)[nH]c1=O	-0.1	-1	x	x	x
C/C(CC(=O)Nc1ccc(F)cc1)=N\NC(=O)c1ccccn1	-2.4	99	x	49%	18
O=C(N/N=C/c1ccc(Cl)c([N+](=O)[O-])c1)c1cnccn1	12	5	-11	-5%	-4
O=C(Cn1nnc(-c2ccc3c(c2)OCO3)n1)NCc1ccco1	-2.6	-6	-28	12%	-3
CC1NC(=O)N(C)[C@@H]2NC(=O)N(C)C(c3ccc([N+](=O)[O-])cc3)[C@@H]12 (some centres undefined)	-1.1	2	x	2%	4
COc1ccccc1-c1csc(NC(=O)c2ccc(N3C(=O)CCC3=O)cc2)n1	-4.3	3	x	1%	11
Cc1noc(NS(=O)(=O)c2ccc(N/C=C/C(=O)c3cccnc3)cc2)c1C	0.1	3	-6	4%	8
CCOC(=O)c1c(NC(=O)CSc2nc(C)cc(C)c2C#N)sc(C(C)=O)c1C	2.3	-2	-32	x	-5
O=C(Nc1ccccc1C(=O)N1CCOCC1)c1ccc(Cl)cc1	0.8	1	x	5%	-2
CC(N)Cc1c[nH]c2ccc(OCc3cccs3)cc12 (centres undefined)	8.8	1	x	-5%	x
O=C1NC(c2ccco2)Nc2ccccc21 (centres undefined)	-3.4	-3	11	-2%	-1
CCCCCCCCCC(=O)N1c2ccccc2NC(=O)C1CC(=O)Nc1ccc(C(=O)O)cc1 (centres undefined)	8.5	0	x	4%	x
Cc1ccc(-c2cc(C(F)(F)F)n3ncc(C(=O)N4CCN(C)CC4)c3n2)cc1	-6.4	-13	-43	3%	-6
CC(C)OC(=O)Nc1ccc(N=C(N)N[N+](=O)[O-])cc1	0.1	-3	x	-4%	4
Cc1nc2ccccc2c2oc(C(=O)N3CCC(C)CC3)cc12	0.8	22	x	x	x

Next entries
SMILES	RecA intein inh	Mtb betalactam	YopH PTP inh	Mtb H37Rv	Arbovirus anti	others
CNC(=O)NC(=O)CSc1cccc(C(F)(F)F)c1	-1.1	1	0	1%	4
O=C(Cn1c(=O)oc2ccc(Cl)cc21)Nc1ccon1	-1.3	1	x	x	x
COc1ccc(OC2C(=O)N(c3ccc(C)c(C)c3)C2c2ccc(OC)c(OC)c2)cc1 (centres undefined)	-0.7	-3	-29	6%	2
O=C(c1cc(F)c(F)cc1Cl)N1CCOCC1	2.1	-8	-23	-8%	2
C/C(CCC(C)C)=N\NS(=O)(=O)c1ccc(C)c([N+](=O)[O-])c1	2.2	22	x	-1%	x
c1ccc(N2N=C(c3cccs3)CC2c2ccco2)cc1 (centres undefined)	-9.5	-5	-41	13%	3
O=C1c2ccccc2C(=O)C1c1ccccc1F	1.7	42	x	x	x
O=C(Oc1ccc(Br)cc1)c1cccc(S(=O)(=O)N2CCOCC2)c1	15	0	x	x	x
O=Cc1cc(Br)c(OC(=O)N2CCOCC2)c(Br)c1	-0.5	-3	x	x	x
O=C(NCc1cccc(CNC(=O)C(=O)NCC2CCCO2)c1)C(=O)NCC1CCCO1 (centres undefined)	3.9	4	x	-6%	2
NC(=O)Nc1cc(Cl)ccc1Cl	-0.2	0	x	3%	x
O=C(O)c1ccc(N2C(=O)c3ccc(C(=O)c4cccc([N+](=O)[O-])c4)cc3C2=O)cc1	-0.9	-3	x	-6%	8
CCN(CC)S(=O)(=O)c1cccc(-c2csc(C)n2)c1	-0.9	-8	x	2%	x
COc1ccc(-c2n[nH]c(=S)n2-c2ccccc2C)cc1	-1.6	-10	x	x	x
CSc1ccc(CN(C)C(C)C(=O)NCc2ccccc2)cc1 (centres undefined)	2.0	-3	x	1%	-9
O=C(CCc1ccccc1)NCc1ccncc1	-0.8	-9	x	x	x
Cc1ccc(C(=O)CCC(=O)N2CCN(c3ccc(F)cc3)CC2)cc1	1.1	3	x	x	x
COc1ccc(Cc2nnnn2CC(=O)O)cc1	-3.5	-2	-2	-15%	3
Cc1nc(NC(=O)C2CC2)sc1C	-4.1	4	-30	-2%	1
CC(C)COC(=O)c1ccccc1OC(=O)c1ccncc1	5.7	6	x	1%	-1
O=C(NCCc1ccccc1)C1CCC(Cn2c(=O)c3ccccc3n(Cc3cccc(F)c3)c2=O)CC1 (centres undefined)	1.2	5	-19	-6%	1
O=C(CCCN1C(=O)/C(=C/c2cccs2)SC1=S)Nc1cccc(O)c1	8.4	8	x	x	x
O=[N+]([O-])c1ccc(/C=C/c2ccc3ccccc3n2)cc1	x	2	x	5%	-24
CSCCC(NS(=O)(=O)c1ccc(C)cc1)C(=O)N1CC=C(c2ccccc2)CC1 (centres undefined)	-0.7	-6	x	x	x
CCCCNc1nc(NC)nc(Cl)c1SC	-5.6	-10	x	-2%	5
CCCCn1c(N)c(N(Cc2ccccc2OC)C(=O)COc2ccccc2OC)c(=O)[nH]c1=O	-0.1	-7	x	x	x
O=C(Nc1ccc(Cc2ccncc2)cc1)c1ccc(Cl)c([N+](=O)[O-])c1	1.3	3	-35	5%	5
CCOC(=O)c1c(NC(C)=O)sc2c(OCC(O)CNC(C)(C)C)c(Br)ccc12 (centres undefined)	1.6	99	x	19%	-31
O=C(CNCc1ccncc1)Nc1cc(S(=O)(=O)N2CCCCC2)ccc1Cl	-2.3	2	x	5%	7
